FPR binder: human FPR ligand, with FPRL1 counter-screen; P21462; FPR-expressing cells, fluorescent ligand binding, flow cytometry; inhibition, %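 (tested at 6.7 µM)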; actives 0.74% (n = 24,000);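 further: 0% = buffer wells and 100% = receptor blocker peptide wells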
Target sequence (P21462 whole entry, looked up): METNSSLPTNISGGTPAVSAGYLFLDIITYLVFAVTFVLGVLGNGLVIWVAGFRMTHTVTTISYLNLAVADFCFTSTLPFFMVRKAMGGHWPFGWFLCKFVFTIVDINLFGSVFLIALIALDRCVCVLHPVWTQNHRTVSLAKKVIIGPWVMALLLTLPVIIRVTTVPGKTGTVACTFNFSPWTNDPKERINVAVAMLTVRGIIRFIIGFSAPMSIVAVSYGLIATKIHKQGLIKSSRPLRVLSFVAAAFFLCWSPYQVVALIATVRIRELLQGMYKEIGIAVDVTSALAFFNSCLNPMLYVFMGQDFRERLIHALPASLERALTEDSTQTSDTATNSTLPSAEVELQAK
FPRL1 ligand: human FPRL1 ligand, with FPR counter-screen; P25090; FPRL1-expressing cells, fluorescent ligand binding inhibition, flow cytometry; inhibition, %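 (tested at 6.7 µM)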; actives 0.3% (n = 24,000);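 further: 0% = buffer alone and 100% = receptor blocker peptide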
Target sequence (P25090 whole entry, looked up): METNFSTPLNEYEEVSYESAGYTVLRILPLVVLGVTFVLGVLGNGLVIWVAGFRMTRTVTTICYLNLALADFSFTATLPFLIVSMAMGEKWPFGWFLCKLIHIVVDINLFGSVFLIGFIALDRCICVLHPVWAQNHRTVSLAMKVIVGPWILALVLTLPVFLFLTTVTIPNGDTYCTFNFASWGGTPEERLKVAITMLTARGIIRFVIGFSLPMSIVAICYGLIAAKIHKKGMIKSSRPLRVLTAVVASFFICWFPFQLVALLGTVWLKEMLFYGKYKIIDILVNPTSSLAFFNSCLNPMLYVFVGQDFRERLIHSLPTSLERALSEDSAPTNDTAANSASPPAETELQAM
VCAM-1 up imaging: boosters of cytokine-driven VCAM-1 levels – imaging, high-content imaging, pooled HUVEC, TNFa stimulus (AID 457). Pooled HUVEC, TNFa-induced VCAM-1 immunofluorescence imaging; hits of this screen are not shown here. calls only. actives 0.2% (n = 10,000);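 active means a top-ranked rise in VCAM-1 staining upheld on image or statistical review; inactive means the rest, including candidates rejected on review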;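 further: compounds tested at 5 µM in the well; cells exposed to compound for 24 hours before fixing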
VCAM-1 imaging: suppression of endothelial VCAM-1 upregulation – imaging, high-content imaging, pooled HUVEC, TNFa stimulus (AID 456); HUVEC TNFa-induced VCAM-1 surface expression, immunofluorescence imaging; numbers were filed only for top-ranked candidate wells; actives 0.2% (n = 10,000); inhibition, % at 5 µM, or IC50 in µM where a hit was titrated;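 active means top tenth filtered wells with inhibition above zero that passed visual or statistical confirmation; inactive means the rest, including hits rejected on review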;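 further: 0% = stimulated vehicle wells and 100% = unstimulated cells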
VCAM-1 down: suppression of endothelial VCAM-1 upregulation – cell-based, plate reader, pooled HUVEC, TNFa stimulus (AID 454); HUVEC TNFa-induced VCAM-1 surface immunofluorescence, plate reader; numbers were filed only for top-ranked candidate wells; inhibition, % at 5 µM; actives 0.2% (n = 10,000);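 active means compound among top-ranked inhibitors of TNF-induced VCAM-1 adhesion protein staining, with the hit upheld by image or statistical review; inactive means the rest, including hits rejected on review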;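 further: 0% = TNFa with vehicle and 100% = cells without TNFa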
Starred values were filed as active, the others as inactive; i = inactive; / = not tested or not shown.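 How the source made its calls, unless noted: active means mean above 30%; inconclusive means self-fluorescent; inactive means the rest.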

Each structure is followed by: FPR binder, FPRL1 ligand, VCAM-1 up imaging, VCAM-1 imaging, VCAM-1 down
(1) O=C(Nc1ncnc2sc3c(c12)CCC3)c1ccco1
  -3.3, -2.1, i, i, i
(2) CCN(CC)C(=O)c1ccc(COc2ccccc2Br)o1
  -2.0, -3.2, /, /, /
(3) CCOC(=O)Nc1ccc2c(c1)Nc1ccccc1S2
  -7.3, 1.4, /, /, /
(4) COc1cc(C(=O)NCCC(=O)NC2CCCCCCC2)cc(OC)c1OC
  -0.7, 6.0, /, /, /
(5) CCOc1ccc(-n2c(Cc3cc(=O)[nH]c(=O)[nH]3)nnc2SCC(N)=O)cc1
  -5.5, 6.3, /, /, /
(6) CC(=O)Nc1cn(C(C)=O)c(C)n1
  -4.4, 3.3, /, /, /
(7) Cc1ccc(/C(O)=C2\C(=O)C(=O)N(CC(C)O)C2c2ccc(N(C)C)cc2)cc1 (stereo unspecified)
  36.3*, 23.8, /, /, /
(8) CC1CCCCN1S(=O)(=O)c1ccc2c(c1)CCN2C(=O)CCC(=O)O (stereo unspecified)
  2.9, 1.7, /, /, /
(9) CN(C)c1cc(-c2ccccc2)nc(N)n1
  -2.0, 1.0, /, /, /
(10) COc1cccc(N2CCN(C(=O)CCn3c(=S)[nH]c4cc5c(cc4c3=O)OCO5)CC2)c1
  1.6, -0.2, /, /, /
(11) COc1ccc(C2/C(=C(\O)c3cccc(OC)c3)C(=O)C(=O)N2c2ccccn2)cc1 (stereo unspecified)
  -16.6, 2.8, /, /, /
(12) O=C(Cn1nnc(-c2cccc(C(F)(F)F)c2)n1)NC(=O)NCc1ccco1
  -8.1, 0.6, i, i, i
(13) CN(C(=O)CSc1ncccc1C(=O)O)c1ccccc1
  -2.1, 5.4, /, /, /
(14) O=C(Cn1ncc2c(=O)oc3ccccc3c21)NCC1COc2ccccc2O1 (stereo unspecified)
  -1.0, 1.3, /, /, /
(15) Cc1cc(Br)c(S(=O)(=O)n2nnc3ccccc32)cc1C
  -4.3, -3.1, i, i, i
(16) Cc1nc2ccc3nc(NC(=O)c4ccc(S(=O)(=O)N5CCOCC5)cc4)sc3c2s1
  -0.4, 10.1, /, /, /
(17) c1ccc(OCc2nc(-c3ccccc3)no2)cc1
  -7.4, 3.7, i, i, i
(18) Cc1cc(C(=O)CN2CC(C)OC(C)C2)c(C)n1-c1ccccc1 (stereo unspecified)
  7.5, 1.1, /, /, /
(19) CCCCOc1ccc(C2C3CN(C(=O)OCC)CC=C3C(C#N)=C(N)C2(C#N)C#N)cc1OC (stereo unspecified)
  12.4, 0.9, i, i, i
(20) COc1ccc(-c2cc(C(F)(F)F)nc(N3CCN(C)CC3)n2)cc1
  1.7, 8.9, /, /, /

Along the list, as entered above:
Compounds 3–6 in FPRL1 ligand read 1.4, 6.0, 6.3, 3.3

Structural class, the entries above with four or more nitrogen atoms
Each structure is followed by: FPR binder, FPRL1 ligand, VCAM-1 up imaging, VCAM-1 imaging, VCAM-1 down
(5) CCOc1ccc(-n2c(Cc3cc(=O)[nH]c(=O)[nH]3)nnc2SCC(N)=O)cc1
  -5.5, 6.3, /, /, /
(9) CN(C)c1cc(-c2ccccc2)nc(N)n1
  -2.0, 1.0, /, /, /
(10) COc1cccc(N2CCN(C(=O)CCn3c(=S)[nH]c4cc5c(cc4c3=O)OCO5)CC2)c1
  1.6, -0.2, /, /, /
(12) O=C(Cn1nnc(-c2cccc(C(F)(F)F)c2)n1)NC(=O)NCc1ccco1
  -8.1, 0.6, i, i, i
(16) Cc1nc2ccc3nc(NC(=O)c4ccc(S(=O)(=O)N5CCOCC5)cc4)sc3c2s1
  -0.4, 10.1, /, /, /
(19) CCCCOc1ccc(C2C3CN(C(=O)OCC)CC=C3C(C#N)=C(N)C2(C#N)C#N)cc1OC (stereo unspecified)
  12.4, 0.9, i, i, i
(20) COc1ccc(-c2cc(C(F)(F)F)nc(N3CCN(C)CC3)n2)cc1
  1.7, 8.9, /, /, /

(next part)
Each structure is followed by: FPR binder, FPRL1 ligand, VCAM-1 up imaging, VCAM-1 imaging, VCAM-1 down
(21) C=CCn1cc(C(=O)NCc2cccnc2)c(=O)c2cc(S(=O)(=O)N(CC)CC)ccc21
  4.7, 8.0, /, /, /
(22) CCOc1ccc(C2N(c3ccc(OC)cc3)C(=O)C3CCCN32)cc1OC (stereo unspecified)
  -1.2, -0.9, /, /, /
(23) COc1ccc(OC)c(C(=O)CSc2nnc(-c3ccc(OC)c(OC)c3)o2)c1
  -2.4, -6.9, i, i, i
(24) O=C(Oc1cccnc1)c1ccc(Cl)c(Cl)c1
  -1.8, 0.4, /, /, /
(25) COc1ccc(NC(=O)c2oc3ccccc3c2NC(=O)c2ccco2)c(OC)c1
  5.9, -6.1, /, /, /
(26) COc1ccc(Nc2nc(C)cc(C)c2C#N)cc1OC
  4.9, -0.2, /, /, /
(27) COc1ccc(Cl)cc1C(=O)Nn1cnc2ccccc2c1=O
  2.5, -0.3, /, /, /
(28) COc1ccccc1S(=O)(=O)Cc1ccc(C(=O)N2CCN(c3cccc(Cl)c3)CC2)o1
  3.1, -0.7, /, /, /
(29) COc1ccc(NC(=O)C2=C(C)C(=O)OC23CCC(C)CC3)c(OC)c1 (stereo unspecified)
  -0.9, -2.3, /, /, /
(30) COc1cc2[nH]c(=O)n(CCCCCC(=O)N3CCN(c4ccccc4)CC3)c(=O)c2cc1OC
  -3.1, -9.9, /, /, /
(31) O=C1c2ccccc2C(=O)N1C/C=C/CN1C(=O)c2ccccc2C1=O
  1.5, -5.3, i, i, i
(32) O=P(O)(CN1CCCCCC1)CN1CCCCCC1
  -5.5, -7.4, i, i, i
(33) Cc1ccccc1Cn1c(=O)n(Cc2ccco2)c(=O)c2ccccc21
  -0.8, -11.3, /, /, /
(34) COc1cccc(CNC(=O)C2CCN(S(=O)(=O)c3cnc[nH]3)CC2)c1
  4.4, 2.3, /, /, /
(35) O=C(Nc1cccc(Cl)c1)N1CCN(c2ncccn2)CC1
  -1.6, 8.3, i, i, i
(36) CC(C)Oc1ccc(C2CNC(=O)C2)cc1 (stereo unspecified)
  2.0, 3.8, /, /, /
(37) COc1cccc(C(=O)CSc2nnc(-c3cc(OC)c(OC)c(OC)c3)o2)c1
  6.2, -7.5, /, /, /
(38) Nc1nc(-c2ccccc2)cc(C(F)(F)F)n1
  3.4, 1.9, i, i, i
(39) CCOC(=O)c1ccc(NC(=O)CSc2nnc(COc3ccccc3)n2C)cc1
  -0.1, 3.5, i, i, i
(40) CN1CCCC(OC(=O)COc2ccc(Br)cc2)C1 (stereo unspecified)
  -3.0, 5.6, i, i, i
(41) CCOC(=O)CSc1nnc(CNC(=O)c2cc(OCC)c(OCC)c(OCC)c2)n1C
  -6.3, 51.3*, /, /, /
(42) O=C(CCC(=O)OCCCC(F)(F)C(F)(F)F)NC1CCCCC1
  2.3, -2.5, i, i, i
(43) CCN(c1ccccc1)S(=O)(=O)c1ccc2[nH]cc(C(=O)N3CCOCC3)c(=O)c2c1
  0.0, -2.2, /, /, /
(44) Cn1c(=O)cc(SCC(=O)N2CCCC2)c2ccccc21
  -5.8, -1.5, /, /, /
(45) CC1N=C2c3ccccc3N=C(SCc3cc(=O)n4cc(Cl)ccc4n3)N2C1=O (stereo unspecified)
  2.3, -2.5, i, i, i
(46) CCCOc1ccc(C2C(=O)N(C3CCCCC3)CC(=O)N2CCCOCC)cc1OC (stereo unspecified)
  9.0, 5.6, /, /, /
(47) O=C(O)CCS(=O)(=O)Cc1cccc(Cl)c1
  -0.4, 1.0, /, /, /
(48) CC(=O)c1c(O)cc(C)n(Nc2nc(C)cc(C)n2)c1=O
  -2.3, -0.4, i, i, i
(49) CN(CC(=O)NCc1ccc(F)cc1)S(=O)(=O)c1cccc2nsnc12
  2.5, -8.9, /, /, /
(50) O=C(c1cccnc1)N1CCN(C(=O)c2ccccc2F)CC1
  -6.2, 1.2, i, i, i
(51) COc1ccc(-n2c(Cc3cccn3C)nnc2SCC(=O)N2CCCc3ccccc32)cc1
  12.1, 7.3, /, /, /
(52) CCOC(=O)c1[nH]c(C)c(C(=O)N2CCN(C(=O)c3ccco3)CC2)c1C
  0.0, 2.6, i, i, i
(53) CCCCOc1ccccc1NC(=O)c1ccco1
  -2.0, -1.8, i, i, i
(54) COc1ccc(CCNC(=O)c2nonc2N)cc1OC
  -0.7, -2.7, /, /, /
(55) COc1ccc(C2C(C(=O)N3CCCC3)c3cc(OC)c(OC)cc3C(=O)N2C)cc1 (stereo unspecified)
  13.7, -2.5, i, i, i
(56) O=C(NCC(=O)N(c1cnc2ccccc2c1)C(C(=O)NC1CCCC1)c1ccncc1)c1ccco1 (stereo unspecified)
  2.4, 1.0, i, i, i
(57) S=c1[nH]ncn1-c1ccccn1
  -3.9, 2.2, i, i, i
(58) O=C(C1=C(O)C(=O)N(c2ncccn2)C1c1ccc(Cl)cc1)c1ccco1 (stereo unspecified)
  -5.7, 18.0, /, /, /
(59) Clc1ccc(OCc2nc(-c3ccncc3)no2)c(Br)c1
  4.7, -2.5, /, /, /
(60) CCOC(=O)CSc1nc2cc(C(=O)NCc3ccco3)ccc2c(=O)n1C1CCCCC1
  1.4, 0.1, i, i, i
(61) Cc1ccc(C)n1CCN1CCN(CC(=O)Nc2cc(C(F)(F)F)ccc2Cl)CC1
  -11.5, -11.4, /, /, /
(62) CCOC(=O)Nc1ccc2c(c1)Sc1ccccc1N2C(=O)CCN1CCOCC1
  -5.7, -1.5, /, /, /
(63) Nc1cc(-c2cccc(F)c2)nn1S(=O)(=O)c1cccc2nsnc12
  -1.5, -4.5, /, /, /
(64) COc1ccc2nc(SCC(=O)N3CCNC3=O)[nH]c2c1
  0.3, 0.4, /, /, /
(65) c1ccc2c(c1)sc1nnnn12
  0.3, -0.4, i, i, i
(66) CCOC(=O)Cn1c(N)c(C(=O)OC)sc1=S
  1.5, 0.8, /, /, /
(67) Cn1c(=O)[nH]c(=O)c2c1nc(CN1CCOCC1)n2CCCO
  -0.3, 0.0, /, /, /
(68) O=C(C1CCC(CNc2c(N3CCCCC3)c(=O)c2=O)CC1)N1CCN(c2ccccn2)CC1 (stereo unspecified)
  -5.0, 1.7, /, /, /
(69) COc1ccc(OC)c(CCNC(=O)CC2Oc3ccc(C)cc3NC2=O)c1 (stereo unspecified)
  5.2, 2.5, /, /, /
(70) CCC(C)NCC(O)COCc1ccc(Cl)cc1 (stereo unspecified)
  -3.0, 5.0, i, i, i
(71) COC(=O)c1cn(NC(=O)c2cccnc2)c(=O)c2ccccc12
  -8.8, -0.2, i, i, i
(72) Cc1nc2ccccc2c(=O)n1NC(=O)c1ccccc1Cl
  2.8, -27.5, /, /, /
(73) NC(=O)c1cc(S(=O)(=O)NC2CCCCC2)co1
  2.7, -2.8, /, /, /
(74) Cc1ccc(CCNC(=O)C2CCCN(S(=O)(=O)c3c(C)nn(C)c3C)C2)cc1 (stereo unspecified)
  2.7, -5.9, /, /, /
(75) O=C(CN1C(=O)C2(OCCCO2)c2ccccc21)NCc1ccccc1
  1.2, -4.5, /, /, /
(76) COc1cc(C2C(C#N)=C(N)Oc3cc(N)ccc32)cc(OC)c1OC (stereo unspecified)
  1.8, 4.9, i, i, i
(77) CN1CCN(C(=O)c2cn(C)c3ccc(S(=O)(=O)N(C)C4CCCCC4)cc3c2=O)CC1
  -16.6, -7.9, /, /, /
(78) COc1ccc(CCNC(=O)CSCc2n[nH]c(=O)[nH]2)cc1OC
  8.6, 1.1, i, i, i
(79) CC(=O)Nc1ccc(NC(=O)c2ccccc2F)cc1
  2.3, 4.9, i, i, i
(80) Cc1ccc(C)c(NS(=O)(=O)c2ccc(NC(=O)c3ccco3)cc2)c1
  -2.8, -1.7, i, i, i
(81) COc1ccc(S(=O)(=O)Cc2ccc(C(=O)NC3CCCC3)o2)cc1
  4.0, -3.7, /, /, /
(82) Cc1ccc(C)c(NS(=O)(=O)c2cc(Br)cnc2N)c1
  -6.3, -7.7, /, /, /
(83) O=C(Nc1ccccc1)N1CCSCC1
  1.5, -2.4, /, /, /

Assay outcomes deposited in PubChem BioAssay by several laboratories.

The list is partial, so the mix of outcomes need not match the whole.
